Bioassay records deposited in PubChem BioAssay by National Center for Advancing Translational Sciences (NCATS).
StopGo FLuc – FMDV 2A StopGo reporter, firefly signal. HEK cells with a luciferase reporter of 2A StopGo recoding. Potency, µM (top dose mostly 57.5 µM), without a hit: at the top dose signal change, negative = less light. 120,000 tested, 0.23% active. AID 1745856; active = well fitted falling curve with a large enough effect; inconclusive = small, poorly fitted or top-dose-only effect; inactive = no such curve, though single readings can be large or run the other way; note: nearly all actives have a fitted effect of over 60% in size; overnight with compound
StopGo RLuc – FMDV 2A StopGo reporter, Renilla signal | 120,000 tested, 0.32% active | Potency, µM (titrated, usually from 57.5 µM), without a hit: at the highest dose signal change, negative = less light | HEK cells with a luciferase reporter of 2A StopGo recoding | AID 1745857; active means well fitted falling curve with a large enough effect; inconclusive means small, poorly fitted or top-dose-only effect; inactive means no such curve, though single readings can be large or run the other way; note: nearly all actives have a fitted effect of over 55% in size; overnight with compound
* hit, by the source's call; ? = inconclusive; & = joins results of further samples; [ ] = another dose, or the depositor's remark. % is set by controls: 0 for no effect and ±100 for the full control effect; potency is the fitted concentration of half-maximal effect. The list is partial; the hit share may differ from the screen's.

(1) CC(C)C(=O)Nc1ccc(F)c(F)c1
(2) CC(C)c1nc2oc3c(=O)n(C)cnc3c2c2c1CCC2
(3) COCc1cccc(CNC(=O)NC(C)COCC(F)(F)F)c1 (centres undefined)
(4) COc1ccccc1Cc1nc2ccccc2nc1SCC(=O)N1CCC(C)CC1
(5) CCN(C(=O)c1cn(CC)c(=O)c2cc(OC)c(OC)cc12)c1ccc(C)c(C)c1

Screen / compound no.	1	2	3	4	5
StopGo RLuc	7%	-3%	6%	229%[activator]	0%
StopGo FLuc	9%	-3%	-3%	-4%	-7%

(6) COC(=O)c1cc(S(=O)(=O)N(C)CC(=O)N2CCN(c3ccc(C(C)=O)cc3)CC2)cn1C
(7) N[C@H](C(=O)O)[C@@H](O)c1ccc(O)c(O)c1
(8) COc1ccc(-c2nn(-c3ccc(F)cc3)c3c2cnc2cc4c(cc23)OCO4)cc1
(9) Cc1ccc(C(=O)CC2(C#N)C(N)=C(C=O)CC2(C#N)C#N)cc1 (centres undefined)
(10) COc1ccc(C(=O)N[C@@H]2C(=O)Nc3c(c(C)nn3C)[C@H]2c2ccc3c(c2)OCCO3)cc1OC

Screen / compound no.	6	7	8	9	10
StopGo RLuc	-18%	-11%	-16%	?	9%
StopGo FLuc	-5%	-15%	-15%	?	8%

(11) O=C(Nc1ccccc1)c1oc2ccccc2c1NC(=O)c1nn(-c2cccc(Cl)c2)ccc1=O
(12) N#Cc1cccc(NC(=O)c2cc3c(s2)-c2ccc(Cl)cc2SC3)c1
(13) CCN(CC)C(=S)SC(C(N)=O)c1ccccc1 (centres undefined)
(14) CCN(C(=O)Cn1c(=O)n(-c2ccccc2)c(=O)c2ccc(C(=O)NCc3ccc4c(c3)OCO4)cc21)c1cccc(C)c1
(15) COc1ccc(NC(=O)CSc2nnc(C3CCCCC3)n2-n2cccc2)cc1

Screen / compound no.	11	12	13	14	15
StopGo RLuc	12%	?	30%	330%[activator]	33%[activator]
StopGo FLuc	0%	24%	-2%	37%[activator]	-1%

(16) COc1cccc(C(=O)CC2(O)C(=O)Nc3ccc(F)cc32)c1 (centres undefined)
(17) Cc1ccc2[nH]cc(C(C(=O)O)N3CCN(Cc4ccncc4)CC3)c2c1 (centres undefined)
(18) CCCCCCn1c(N2CCN(CC(=O)OC)CC2)nc2c1c(=O)[nH]c(=O)n2C
(19) COc1ccc(-c2c(NC(=O)c3cccs3)oc3ccc(Cl)cc3c2=O)cc1OC
(20) CCc1ccc(CNC(=O)CN2C(=O)C3CCCCN3c3ccc(C(=O)N4CCCC4)cc32)cc1 (centres undefined)

Screen / compound no.	16	17	18	19	20
StopGo RLuc	18%	-6%	-1%	-9%	1%
StopGo FLuc	-6%	-12%	4%	-5%	-15%

(21) Fc1ccc(CCNC(=S)Nc2cccc(Cl)c2)cc1
(22) CCCCN(C)C(=O)Cn1cc(C#N)c2ccccc21
(23) COc1ccc(CCNC(=S)Nc2cccc(F)c2)cc1
(24) N#CC(Cc1cccnc1)C(=O)Nc1ccccc1Br (centres undefined)
(25) CC(=O)Nc1ccc2c(c1)nc(CCNC(=O)c1ccc(C)c(F)c1)n2C

Screen / compound no.	21	22	23	24	25
StopGo RLuc	-77%	-1%	62%[activator]	26%	-12%
StopGo FLuc	?	13%	10%	23%	9%

(26) O=C(CSc1ncnc2nc[nH]c12)Nc1ccc(F)cc1
(27) Cc1ccc(Cl)cc1N1CCN(C(=O)C(C)n2ncn3cccc3c2=O)CC1 (centres undefined)
(28) Cc1ccc(N2CCN(S(=O)(=O)c3ccc(F)c(C(=O)Nc4ccc(Cl)cc4Cl)c3)CC2C)cc1 (centres undefined)
(29) CCOc1ccc(CCNC(=O)C2CCC(CNS(=O)(=O)c3ccc(Cl)cc3)CC2)cc1OCC (centres undefined)
(30) Cc1cc(-c2nn3c(-c4ccco4)nnc3s2)n(C)n1

Screen / compound no.	26	27	28	29	30
StopGo RLuc	-2%	-15%	-4%	-9%	5%
StopGo FLuc	12%	-3%	-5%	-12%	21%

(31) CCCSc1nnc(NC(=O)c2cc(=O)c3ccccc3o2)s1
(32) CCCCC(=O)N1CC(=O)Nc2ccc(F)cc2C1c1ccc(F)cc1 (centres undefined)
(33) CCc1ccc(NC(=O)N2CC(C)Oc3ccc(C)cc32)cc1 (centres undefined)
(34) CCCCC(=O)OC1=C(C(=O)c2ccccc2)N(CC)S(=O)(=O)c2ccccc21
(35) Cc1noc(C)c1C(=O)OCC(=O)c1c[nH]c2ccccc12

Screen / compound no.	31	32	33	34	35
StopGo RLuc	-8%&-13%	11%	1%	6%	1%
StopGo FLuc	17%&-9%	-9%	22%	-13%	25%

(36) Cc1nnc(N2CCN(c3ccccc3F)CC2)c2c1nnn2Cc1ccc(F)cc1
(37) O=C(N/N=C/c1cccnc1)C1CC1
(38) CCOc1ccc(-c2cc3ccccc3[nH]2)cc1
(39) COc1ccc(N2CCN(C(=O)CCn3c(=O)c4cccn4c4cccnc43)CC2)cc1
(40) O=C(NCCc1ccc(F)cc1)C(=O)NCC(c1cccs1)S(=O)(=O)c1ccc(Cl)cc1 (centres undefined)

Screen / compound no.	36	37	38	39	40
StopGo RLuc	-3%	8%	23%	-11%	?
StopGo FLuc	-12%	6%	120%[activator]	-1%	?

(41) CCOC(=O)c1ccc(NC2SC(=O)N(Cc3cccc(C(=O)O)c3)C2=O)cc1 (centres undefined)
(42) Cc1nc2c(cc(OCC(O)COc3ccc(C#N)cc3)c3ccsc32)s1 (centres undefined)
(43) CC(CN1CCOCC1)OC(=O)COc1ccc(Br)cc1 (centres undefined)
(44) COc1ccccc1C(C)NC(=O)c1n[nH]c(=O)c2ccccc12 (centres undefined)
(45) CCC(C)(C)NC(=O)Cc1nn(C)c(=O)c2ccccc12

Screen / compound no.	41	42	43	44	45
StopGo RLuc	-9%	21%	3%	-12%	15%
StopGo FLuc	78%[activator]	12%	8%	6%	33%

(46) O=C(c1ccc(CSc2nc3ccncc3n2Cc2ccccc2F)cc1)N1CCCCC1
(47) Cc1ccc2c(=O)cc(C(=O)Nc3nc4ccc(F)cc4s3)oc2c1C
(48) COc1ccc(NC(=O)CC2C(=O)N(c3cccc(OC)c3)C(=O)N2Cc2cccnc2)cc1 (centres undefined)
(49) CCN1CCN(c2oc(-c3ccccc3F)nc2C#N)CC1
(50) Cc1ccc(-c2nc3cc(NC(=O)c4cc(Br)ccc4Cl)ccc3o2)cc1

Screen / compound no.	46	47	48	49	50
StopGo RLuc	-9%	-12%	-13%	0%	4%
StopGo FLuc	42%[activator]	-19%	-22%	14%	147%[activator]

(51) CCOC(=O)C1CCN(C(=O)CSc2nnc(Nc3ccc(C)cc3C)s2)CC1
(52) CC1CCN(C(=O)c2cnn(-c3ccc(Cl)cc3)c2C2CCN(C(=O)OC(C)(C)C)CC2)CC1
(53) CCCCCc1ccc(-c2ccc(-c3ccc(C#N)cc3)cc2)nc1
(54) CCOc1cc(C#N)cc(Br)c1OCc1nnc(-c2ccccc2Br)o1
(55) CCC(C)Cn1c(/C=C/c2ccccc2)nc2ccccc21 (centres undefined)

Screen / compound no.	51	52	53	54	55
StopGo RLuc	6%	-3%	-1%	-1%	?
StopGo FLuc	-7%	-5%	4%	-8%	13%

(56) N#CC1=C(N)Oc2c(c(=O)[nH]c3ccccc23)C1c1ccccc1 (centres undefined)
(57) Cc1ccc(-c2nc3nc(C)cc(Nc4ccc(N(C)C)cc4)n3n2)cc1
(58) CN1CCN(c2ccc(NC(=O)COc3ccc(Br)cc3Br)cn2)CC1
(59) CSc1ccc(-c2nnn(CC(=O)Nc3sc4c(c3C#N)CCC(C(C)(C)C)C4)n2)cc1 (centres undefined)
(60) CCC(C)(C)C1CCC(NC(=O)c2cccnc2Cl)CC1 (centres undefined)

Screen / compound no.	56	57	58	59	60
StopGo RLuc	4%	15%	3%	-1%	13%
StopGo FLuc	4%	70%[activator]	11%	-15%	2%

(61) CCC(C)(C)c1nnc(NC(=O)Cc2ccccc2)s1
(62) O=C(Nc1ccc(N2CCN(Cc3ccccc3)CC2)cc1)c1cnc2ccccc2n1
(63) N#CCCn1c(-c2ccccc2)c(-c2ccccc2)c2ccc3ccccc3c21
(64) O=C(NCc1ccc(F)cc1)c1ccccc1-c1ccccc1
(65) Cc1cc2nc(-c3cccc(NC(=O)c4cccnc4)c3)oc2cc1C

Screen / compound no.	61	62	63	64	65
StopGo RLuc	28%	7.9µM*	16%	24%	17%
StopGo FLuc	39%[activator]	?	11%	14%	173%[activator]

(66) COc1ccc(NC(=O)c2ccccc2OCc2cn3ccccc3n2)cc1S(=O)(=O)N(C)C
(67) Cc1ccc(-n2ncc(C(=O)NCCc3ccsc3)c2C2CCN(C(=O)OC(C)(C)C)CC2)cc1C
(68) COCCCNC(=O)c1ccc(Cn2c(=O)c3ccccc3n(CC(=O)Nc3ccc(C)cc3C)c2=O)cc1
(69) O=C(Nc1cccc2ncccc12)C(c1ccccc1)c1ccccc1
(70) CNC(=O)NC(=O)CN1CCN(C(=O)Cc2cccc(OC)c2)CC1

Screen / compound no.	66	67	68	69	70
StopGo RLuc	0%	-15%	2%	0%	-14%
StopGo FLuc	0%	-17%	-4%	63%[activator]	-8%

Sorted by length of the SMILES (smallest number first): some entries from above
(64) O=C(NCc1ccc(F)cc1)c1ccccc1-c1ccccc1
(65) Cc1cc2nc(-c3cccc(NC(=O)c4cccnc4)c3)oc2cc1C
(66) COc1ccc(NC(=O)c2ccccc2OCc2cn3ccccc3n2)cc1S(=O)(=O)N(C)C
(67) Cc1ccc(-n2ncc(C(=O)NCCc3ccsc3)c2C2CCN(C(=O)OC(C)(C)C)CC2)cc1C

Screen / compound no.	64	65	66	67
StopGo RLuc	24%	17%	0%	-15%
StopGo FLuc	14%	173%[activator]	0%	-17%

Going on with the list.
(71) CC(=O)N1CCC(Nc2nc(-c3cccnc3)nc3ccccc23)CC1
(72) Cc1ccc(NC(=O)C(=O)NCCCN2CCOCC2)cc1C
(73) Cc1ccc(C)c(NC(=O)CCc2ncc(-c3c(F)cccc3F)o2)c1
(74) CCn1c(SCCOc2ccccc2F)nc2ccccc21
(75) CN(C)CCNC(=O)CCNc1nc(Cl)nc2nc[nH]c12

Screen / compound no.	71	72	73	74	75
StopGo RLuc	23%	-9%	2%	29%	-1%
StopGo FLuc	0%	7%	1%	60%[activator]	1%

(76) COc1ccc(-c2coc3cc(OCC(=O)NCc4ccc(F)cc4)ccc3c2=O)cc1OC
(77) O=C(NCC1CCN(Cc2cccc(F)c2)CC1)c1cc2ccc3cccnc3c2[nH]1
(78) C/C(=N/Nc1ccc(S(N)(=O)=O)cc1[N+](=O)[O-])c1cc2ccccc2o1
(79) Clc1ccccc1Cn1c(-c2cccs2)nc2ccccc21
(80) CCc1ccc(S(=O)(=O)NCc2nc3cccnc3n2Cc2cccc(OC)c2)cc1

Screen / compound no.	76	77	78	79	80
StopGo RLuc	3%	7%	-8%	15%	57%[activator]
StopGo FLuc	13%	4%	0%	52%[activator]	-12%

(81) Cc1cccc(NC(=O)C(=O)NCC(c2cccnc2)N2CCOCC2)c1 (centres undefined)
(82) CCC(=O)Nc1ccc(CC)cc1-c1nc2ccccc2n(CC(=O)Nc2cccc(OC)c2)c1=O
(83) COc1ccc(CCNC(=O)C(=O)Nc2ccc(C)c(C)c2)cc1
(84) COc1ccc(C)cc1NC(=O)CN1C(=O)CCc2cc(S(=O)(=O)N3CCOCC3)ccc21
(85) O=C(c1cccc(Cl)c1)N1CCCC(c2nc3ccccc3o2)C1 (centres undefined)

Screen / compound no.	81	82	83	84	85
StopGo RLuc	-11%	-11%	-1%	?	?
StopGo FLuc	-4%	-24%	30%	?	-26%

Pulled by structure from the entries so far, four records:
(81) Cc1cccc(NC(=O)C(=O)NCC(c2cccnc2)N2CCOCC2)c1 (centres undefined)
(82) CCC(=O)Nc1ccc(CC)cc1-c1nc2ccccc2n(CC(=O)Nc2cccc(OC)c2)c1=O
(83) COc1ccc(CCNC(=O)C(=O)Nc2ccc(C)c(C)c2)cc1
(85) O=C(c1cccc(Cl)c1)N1CCCC(c2nc3ccccc3o2)C1 (centres undefined)

Screen / compound no.	81	82	83	85
StopGo RLuc	-11%	-11%	-1%	?
StopGo FLuc	-4%	-24%	30%	-26%

Next compounds:
(86) Cc1ccccc1-c1nc(C#N)c(NCc2ccco2)o1
(87) C=CC(=O)Oc1ccc(C(=O)Oc2ccc(CCCC)cc2)cc1
(88) NC(=O)c1cc(-c2ccc(Br)cc2)nc2ccccc12
(89) O=C(Cn1ncc2c3ccccc3n(Cc3ccccc3)c2c1=O)NCc1cccs1
(90) Cc1ccc(C)c(NC(=O)CSc2nnc3[nH]c(=O)cc(-c4ccccc4)n23)c1
(91) COCCN(Cc1ccco1)C(=O)c1cc2c(Cl)nc3ccc(C)cc3c2s1
(92) Cc1nc(SCC(=O)c2c[nH]c3ccccc23)n[nH]1

Screen / compound no.	86	87	88	89	90	91	92
StopGo RLuc	58%[activator]	3%[1.06 µM]	-13%	4%	7%	-14%	-5%
StopGo FLuc	32%[activator]	42%[activator]	25%	1%	-3%	-12%	48%[activator]
